Mtb hypoxia inh – Mtb hypoxia fluorescent reporter inhibition | M. tuberculosis hypoxia-regulated fluorescent reporter, fluorescence | fluorescence inhibition, % (concentration not given with the values) | 0.1% of 300,000 active | AID 1159583;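 active means 35 to 45% if threefold the growth effect, above 45% if 1.5-fold the growth effect; inactive means the rest, general growth blockers included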;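 further: wells of about 50 µL received 100 nL stock; 0% = vehicle wells and 100% = reference inhibitor wells; whole bacteria with a GFP reporter of the hypoxia response; strong numbers were not always called active; many hits fall short of the cut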
PrP 5UTR inh – inhibition of PrP 5' UTR reporter expression | cell-based PrP 5' UTR mRNA reporter, plate reader | inhibition, % (test concentration not listed) | 0.35% of 340,000 active | AID 488862;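 active means every replicate at 50% or more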;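 further: 0 = median of the neutral control wells; tested in H4 reporter cells; numbers are from one replicate; inactives centre near -14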
RN4220 kill – kills Staphylococcus aureus RN4220. S. aureus RN4220 growth, OD600, 16 h. inhibition, % (no concentration beside the values). 0.33% of 330,000 active;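 active means z-score of -3 or lower and OD600 up to 0.18 on both plates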;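 further: plate controls were untreated cells for no effect and reference antibiotic for full effect; stock transfer was 100 nL into about 80 µL; one replicate is shown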
Autofluor counter – counter-screen for toxin protease inhibitors: compound fluorescence. AID 624483. compound autofluorescence counterscreen, microsphere flow cytometry; active compounds read high. 3.1% of 360,000 active. fluorescence intensity (concentration not given with the values);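 active means at least 3 SD above the mean of all compounds, about 16000 in these data; inconclusive means too few beads counted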;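 further: 100 nL of 1 mM stock went into each well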
Sa ugtP lethal – kills S. aureus RN4220 lacking UgtP. S. aureus RN4220 ugtP deletion, OD600 growth, 16 h; some inactives read as strong as hits. growth inhibition, % (no concentration beside the values). 0.54% of 330,000 active. AID 1259309;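 active means z-score under -3 and OD600 up to 0.15 on both plates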;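 further: plate controls were untreated wells for no effect and antibiotic for full effect; wells of about 80 µL received 100 nL stock; the first replicate is given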
BJeLR viability – kills HRASV12-expressing BJeLR cells; BJeLR (HRASV12) viability, CellTiter-Glo ATP luminescence, 48 h; reference of the scale not given here; inhibition, % (no concentration beside the values); 0.17% of 300,000 active; AID 1554;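 active means replicate mean above 50%; inconclusive means above 50% but judged a plate artefact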;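 further: 50 nL library stock added to about 25 µL; numbers are from one replicate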
Mtb hypoxia inh growth – second read-out of Mtb hypoxia inh, no call of its own (marks repeat the call); growth inhibition, %; measured here: M. tuberculosis growth (absorbance);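 0% = vehicle and 100% = reference antibiotic; read after six days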
An asterisk follows results filed as active; ? = inconclusive; . = not tested or not shown; & = joins results of further samples. Compounds were not picked by outcome; about 4.1% have a hit in one of these screens.

SMILES,Sa ugtP lethal,RN4220 kill,Mtb hypoxia inh,PrP 5UTR inh,Autofluor counter,Mtb hypoxia inh growth,BJeLR viability
O=C(CNC(=O)c1ccco1)NNC(=O)c1ccc(Br)cc1,3,1.0,1,-10,3621,6,.
CCOc1ccc(S(=O)(=O)Nc2ccc(C(=O)NCC(c3ccco3)N3CCCCC3)cc2)cc1 (configuration not stated),9,1.5,-6,-11,7133,-3,9
Brc1ccccc1OCCOCCOc1cccc2cccnc12,-7,2.8,.,-10,2712,.,10
CCOC(=O)c1ccc(NC(=O)c2ccnn2C)cc1,2,2.8,14,-30,3013,-1,-4
CCN(CC)S(=O)(=O)c1ccc(OC)c(NC(=O)CCc2c(C)noc2C)c1,5,8.0,8,-12,6909,5,.
O=C(Nc1ccc2c(c1)nc1n2CCCCC1)c1cc(S(=O)(=O)N2CCOCC2)ccc1Cl,-4,-8.0,1,-6,2937,2,7
COc1ccccc1N1C(N)=NC(N)=NC12CCCCC2,1,2.6,11,-13,4119,4,-2
CC1(C(=O)NC2CCCC2)CCC(=O)N1Cc1ccc2c(c1)OCO2 (configuration not stated),14,4.1,6,-15,25159*,2,12
CCCNC(=O)c1onc(CSc2ccccc2)c1C(=O)NCCC,2,6.7,4,-9,4457,7,-1
CC1=C(C(=O)OCc2ccc3c(c2)OCO3)C(c2ccc(Cl)cc2)NC(=O)N1 (configuration not stated),-21,2.0,-6,28,12348,6,22
CCOC(=O)C1CCN(C(=O)Cn2cnc3sc(C)c(S(=O)(=O)N4CCCCC4)c3c2=O)CC1,1,1.5,-7,-14,4325,-7,-1
CCn1cc(C(=O)Nc2ccc(Cl)cc2Cl)cn1,15,0.5,10,-34,3053,12,3
Cc1[nH]n(-c2ccc(Cl)cc2)c(=O)c1C=NC12CN3CN(CN(C3)C1)C2,7,1.7,8,0,2290,8,4
COc1cccc(NC(=O)CN(C)C(=O)c2cc(S(=O)(=O)Nc3ccccc3OC)ccc2C)c1,-1,-0.9,5,-16,2972,2,.
Cc1ccc(-c2nc(CN3CCN(C(=O)C4CCCO4)CC3)cs2)cc1 (configuration not stated),7,-1.6,16,-9,5905,17,5
CCNC(=O)C(=O)N1CCC2(CC1)OCCN2S(=O)(=O)c1ccc(C)cc1,1,2.3,-5,6,4586,2,14
O=C(OCc1cccc(Cl)c1)c1cc([N+](=O)[O-])ccc1N1CCOCC1,-8,2.8,5,-13,?,-3,-3
Cc1cc(=O)[nH]c(N/N=C/c2cc(C)n(-c3ccccc3)c2C)n1,.,.,.,18,3601,.,-3
COc1ccccc1NC(=O)CCCN1C(=O)C(c2ccccc2)Oc2cccnc21 (configuration not stated),8,6.1,7,-21,5502,5,0
CCC(=O)Oc1ccc(C(=O)Nc2ccc3c(c2)OCO3)cc1,1,1.3,-1,-64,4566,5,16
Cc1c(Br)c(=O)oc2c(Br)c(O)ccc12,3,-3.3,-2,-1,4126,4,-1
O=c1[nH]c(=O)n(CCC2=CCCCC2)c(O)c1C=NCc1cccnc1,-9,-0.2,4,-21,2457,6,-3
C=CCN(c1ccccc1)S(=O)(=O)c1ccc2[nH]cc(C(=O)NCCOC)c(=O)c2c1,1,5.8,8,-18,3566,-1,3
Cc1ccc(S(=O)(=O)Nc2ccc3c4c(cccc24)CC3)c(C)c1,7,15,.,-26,4244,.,28
Cc1ccc(Oc2ncnc3sccc23)cc1,10,10,11,-60,2212,9,9
O=C1C(=Cc2ccncc2)CCc2ccccc21,2,5.9,1,.,.,-1,.
Cc1cccc(OCCC(=O)OCC(=O)N2CCc3ccccc32)c1,11,-2.7,8,-19,9027,0,-4
Cc1cc([N+](=O)[O-])nn1CC(=O)N1CCOCC1,6,4.2,-11,0,4029,-9,-6
Cc1ccc(NC(=S)Nc2cccc(S(=O)(=O)Nc3c(C)n(C)n(-c4ccccc4)c3=O)c2)cc1,6,7.2,5,50,4010,1,-6
COc1ccc(NC(=S)Nc2ccc3nsnc3c2)cc1,-11,1.4,9,-25,7180,8,9

Some entries already given, showing only Mtb hypoxia inh growth, RN4220 kill and PrP 5UTR inh:
Compound	Mtb hypoxia inh growth	RN4220 kill	PrP 5UTR inh
Cc1cc(=O)[nH]c(N/N=C/c2cc(C)n(-c3ccccc3)c2C)n1	.	.	18
COc1ccccc1NC(=O)CCCN1C(=O)C(c2ccccc2)Oc2cccnc21 (configuration not stated)	5	6.1	-21
CCC(=O)Oc1ccc(C(=O)Nc2ccc3c(c2)OCO3)cc1	5	1.3	-64
Cc1c(Br)c(=O)oc2c(Br)c(O)ccc12	4	-3.3	-1
O=c1[nH]c(=O)n(CCC2=CCCCC2)c(O)c1C=NCc1cccnc1	6	-0.2	-21

The listing picks up, repeating the 2 entries before the break.
SMILES,Sa ugtP lethal,RN4220 kill,Mtb hypoxia inh,PrP 5UTR inh,Autofluor counter,Mtb hypoxia inh growth,BJeLR viability
Cc1ccc(NC(=S)Nc2cccc(S(=O)(=O)Nc3c(C)n(C)n(-c4ccccc4)c3=O)c2)cc1,6,7.2,5,50,4010,1,-6
COc1ccc(NC(=S)Nc2ccc3nsnc3c2)cc1,-11,1.4,9,-25,7180,8,9
CCC1(C)NC(=O)N(CC(=O)NCC(=O)Nc2c(C)cc(C)cc2C)C1=O (configuration not stated),2,-0.6,3,-8,6350,3,.
Cc1ccn(C(CC(=O)c2ccc(Br)cc2)C(=O)O)n1 (configuration not stated),2,1.9,-2,-41,12008,13,-4
CCn1ccnc1CN1CCCC(C(=O)c2ccc3c4c(cccc24)CC3)C1 (configuration not stated),4,3.7,16,-18,4453,4,0
O=C1NC(=O)C(c2ccccc2)(c2ccc(O)cc2)N1 (configuration not stated),5,2.6,3,-15,3528,6,.
CC(C)(C)n1nnnc1CN1CCN(C(c2ccccc2)c2ccccc2)CC1,2,-6.3,.,-16,3246,.,-7
COc1ccc(-c2cc(C(=O)NCCCN3CCOCC3)no2)cc1,8,2.5,9,-14,6009,2,14
CCOc1ccc(C2NC(=O)c3ccccc3O2)cc1OC (configuration not stated),9,4.1,-3,12,3282,-3,-6
Cn1c(-c2cccc([N+](=O)[O-])c2)[n+](C)c2ccccc21,6,10,14,-15,4784,4,1
O=C(CSC(=S)N1CCCC1)NCCc1ccccc1,-5,-2.1,-2,-6,6398,9,-3
O=C(CCn1c(=O)oc2ccccc21)Nc1ccon1,1,5.7,-17,-14,8759,-54,1
NC(=S)NN=C(c1ccc(Br)cc1)C1CC1,1,3.6,8,-3,4093,7,.
COc1cc(S(=O)(=O)NCc2cccnc2)ccc1F,-3,-0.6,-1,-13,21999*,3,-1
CCOc1ccc(Cl)cc1C=NNC(=O)c1ccccc1,6,4.1,7,.,.,3,.
CC(C)(C)C(=O)Nc1sc(-c2ccccc2)cc1C(=O)O,6,17,6,-52,4310,7,25
CC1CCC(NC(=O)CN2C(=O)c3cccnc3Oc3ccc(Cl)cc32)CC1 (configuration not stated),-6,-3.1,-1,-8,5753,8,-10
COc1cc(N=Nc2c(O)c3ccccc3[nH]c2=O)c(OC)cc1N=Nc1ccccc1,.,.,.,-13,2775,.,1
CCN(CC)C(=O)c1ccc(NC(=O)c2ccc(N3CCCC3=O)cc2)cc1,1,3.4,6,-17,6324,0,.
Cc1ccc(CCNC(=O)CS(=O)Cc2nc(-c3ccccc3F)oc2C)cc1 (configuration not stated),-2,1.6,9,-3,4635,-2,1
CCOc1cc(/C=C/c2cc(C(=O)O)c3ccccc3n2)ccc1OC,.,.,.,-19,2427,.,-12
COC(=O)c1ccc(N(CC(=O)NC2CCCC2)C(=O)CNC(=O)c2ccco2)cc1,-4,-5.2,0,-19,4511,9,1
CN(C(=O)c1ccc(NC(=O)Cc2cccc(NC(=O)C3CCCN(C(=O)C4CCCC4)C3)c2)cc1)C1CC1 (configuration not stated),7,1.1,2,-11,3695,-5,.
COc1ccc(C(=O)CC(=O)c2ccc(OC)cc2)cc1,0,5.3,15,-43,4326,8,-6
N=c1c2c(n(Cc3ccc(Cl)cc3)c3c1CCC3)CCC2,12,1.2,9,-62,20485*,12,-19
Cc1ccc(C(=O)N[C@@H](Cc2ccccc2)C(=O)N2CCC3(CC2)NCCc2[nH]cnc23)cc1C,0,4.0,-4,-31,5204,-2,2
CC(OC(=O)CNC(=O)c1sc2ccccc2c1Cl)c1ccccc1 (configuration not stated),11,1.9,1,-28,5075,2,.
Cc1ccccc1C(=O)NN=Cc1ccncc1,-7,1.4,7,.,.,7,.
O=[N+]([O-])c1cc2c(cc1CN1CCN(c3ccccc3F)CC1)OCO2,11,3.1,-5,-14,3825,4,6
CCN(CC)CCN(C(=O)c1cc2c(ccc3ccccc32)oc1=O)c1nc2cc3c(cc2s1)OCCO3,32,8.8,0,-14,4486,0,-4
CCN(CC)C(=O)Oc1cc(=O)n(C)c2ccccc12,-6,9.8,10,-37,9610,2,5
O=C(O)C1=CC(c2ccc(C(F)(F)F)cc2)CC(OCCCCO)O1 (configuration not stated),5&3,6.3&6.4,3&3,.,.,4&7,.

SMILES,Sa ugtP lethal,RN4220 kill,Mtb hypoxia inh,PrP 5UTR inh,Autofluor counter,Mtb hypoxia inh growth,BJeLR viability
O=C(CCc1nnc(CCCCc2ccccc2)o1)N(CCO)Cc1ccccc1,8,13,13,-8,5733,6,-1
CC(NC(=O)c1ccc(S(=O)(=O)NCc2ccco2)cc1)c1ccc(F)cc1 (configuration not stated),1,-0.4,11,-21,8537,4,.
CN(C1CCCCC1)S(=O)(=O)c1ccc(S(=O)(=O)N(CC(=O)Nc2ccccc2)C2CC2)cc1,7,3.0,5,-5,4141,-6,-5
C=C1CCN([C@@H](C)C(=O)NCc2cc(OC)c(OC)c(OC)c2)S(=O)(=O)c2ccccc21,.,.,.,-7,2999,.,9
CCCS(=O)(=O)N1CCC(C(=O)NCCCOC(C)C)CC1,6,5.0,-6,-6,3344,4,-11
CCOc1cccc(Nc2cc3n(c(=O)n2)CCc2cc(OC)c(OC)cc2-3)c1,1,6.0,8,-8,?,6,10
O=C(O)C1C2C=CC(C2)C1C(=O)NCCCN1CCCC1=O (configuration not stated),10,4.1,10,-3,4247,-4,8
COc1ccc(C(O)Cc2nccn2C)cc1 (configuration not stated),5,4.9,6,-10,5772,4,-1
CCSc1ccccc1C(=O)NCCc1ccccc1,-6,7.2,-2,-21,5442,2,8
C=CCn1c(O)c(C(CC)=Nc2ccccc2NC(=O)CC)c(=O)[nH]c1=O,1,4.3,5,-12,20357*,8,-11
COC(=O)c1nc(Cl)c(Cl)c(N)c1Cl,6,2.8,0,-3,4522,1,12
COc1ccccc1CNS(=O)(=O)c1cccc2nsnc12,5,2.4,10,0,5138,11,2
COc1ccc(CNC(=O)C(c2ccco2)N(C(=O)CNS(=O)(=O)c2ccccc2)c2ccccc2C)cc1 (configuration not stated),-13,0.9,-5,6,2586,-1,-15
COC(=O)N/N=C/c1cc(Br)ccc1O,.,.,.,-16,4492,.,-9
CC(Nc1nc(N2CCCC2)nc2ccccc12)c1ccccc1 (configuration not stated),-27,-3.7,-1,-16,4142,16,13
Cc1sc2ncnc(N(C)Cc3cccs3)c2c1C,24,5.3,.,-16,2645,.,2
COc1cccc(-c2nnc(NC(=O)CCS(=O)(=O)c3ccc(C)cc3)o2)c1,3,2.2,10,-21,6857,-2,-3
O=c1c2ccccc2nc(-c2ccco2)n1CCCn1ccnc1,2,4.0,5,-31,10419,11,0
O=C(NCCS(=O)c1ccc(Cl)cc1)c1cccc(Cl)c1 (configuration not stated),5,7.2,16,-23,3547,5,-2
COc1ccccc1CNS(=O)(=O)CC12CCC(CC1=O)C2(C)C (configuration not stated),0,5.2,10,-40,5310,0,-3
CCOc1ccc(Nc2cc(Nc3ccccc3OCC)nc(C=C(C#N)C#N)n2)cc1,-2,3.9,9,-18,3770,2,1
CCOC(=O)C(NC(=O)NCc1ccccc1)(OCC)C(F)(F)F (configuration not stated),8,8.5,1,-27,2154,1,5
Nn1c(SCC(=O)N2CCCCCC2)nnc1-c1ccco1,2,0.2,7,-9,3776,7,.
